Beta2AR agonist: human beta-2 adrenergic receptor agonism by FAP | Am2.2-beta2AR cells, FAP receptor internalization, flow cytometry; reference of the scale not given here | response, % (concentration not given with the values) | P07550 | 340,000 tested, 0.43% active;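 active = response above a set limit, near 3 SD of response in nonfluorescent compounds, cut at about 42% in these data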;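 note: stock transfer was 100 nL into about 11 µL; a reference agonist was the positive control; negative values mostly stem from fluorescent compounds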
Target sequence (P07550 whole entry, looked up): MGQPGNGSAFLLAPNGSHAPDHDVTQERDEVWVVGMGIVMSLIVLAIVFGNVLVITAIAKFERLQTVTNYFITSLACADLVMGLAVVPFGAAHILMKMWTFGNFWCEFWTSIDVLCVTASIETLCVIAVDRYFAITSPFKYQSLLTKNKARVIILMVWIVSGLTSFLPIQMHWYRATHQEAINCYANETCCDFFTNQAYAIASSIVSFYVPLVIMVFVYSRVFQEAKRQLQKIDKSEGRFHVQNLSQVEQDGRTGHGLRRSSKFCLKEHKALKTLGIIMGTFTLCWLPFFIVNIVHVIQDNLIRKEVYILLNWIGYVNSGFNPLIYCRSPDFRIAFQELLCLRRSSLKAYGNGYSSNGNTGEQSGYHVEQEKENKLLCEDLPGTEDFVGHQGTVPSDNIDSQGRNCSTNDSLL
HNF4A DNA FP: change in binding of human HNF4 alpha to DNA; P41235; HNF4a-FITC DNA binding, fluorescence polarization, 1 h; activity change, % at 10 µM; 360,000 tested, 0.3% active; in the data active = activity change above about 30%, passing the limit was not always enough;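 note: controls were the assay level and a saturating level of protein; the project sought stronger binding though the title names inhibitors; some compounds called inactive have numbers as strong as hits; positive values seem to mean higher polarization but the record does not say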
Target sequence (P41235 whole entry, looked up): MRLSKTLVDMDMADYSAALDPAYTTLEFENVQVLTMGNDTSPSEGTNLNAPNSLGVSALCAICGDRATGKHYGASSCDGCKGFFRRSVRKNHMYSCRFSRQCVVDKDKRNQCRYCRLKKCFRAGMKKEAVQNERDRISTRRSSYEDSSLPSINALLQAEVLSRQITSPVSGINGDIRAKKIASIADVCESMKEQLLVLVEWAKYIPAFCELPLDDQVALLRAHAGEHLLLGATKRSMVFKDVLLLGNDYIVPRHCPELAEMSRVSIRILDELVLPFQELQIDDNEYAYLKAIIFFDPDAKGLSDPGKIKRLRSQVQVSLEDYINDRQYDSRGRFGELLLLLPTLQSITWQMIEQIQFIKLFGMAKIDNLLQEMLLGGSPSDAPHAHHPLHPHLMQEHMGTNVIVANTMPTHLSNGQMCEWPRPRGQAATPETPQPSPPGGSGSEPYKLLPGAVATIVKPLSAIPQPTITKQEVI
LANA-H2B inh: blocks KSHV LANA binding to histone H2A/H2B; Q9QR71; cell-free LANA-H2A/H2B peptide, fluorescence polarization; inhibition, % (test concentration not listed); 320,000 tested, 0.6% active; AID 2629; in the data active = inhibition mostly above about 10%, no sharp cut-off; inactive = mostly below about 6.7%;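 note: stock transfer was 7.5 nL into about 10 µL; 0% = median of vehicle wells and 100% = median of positive control wells; one replicate is shown; the record names a cut of 25% in any replicate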
Calb FLC: C. albicans growth modulation with fluconazole; C. albicans CaCi-2 (fluconazole-resistant clinical isolate) + fluconazole, Alamar Blue growth, 48 h; 300,000 tested, 0.57% active; growth inhibition, % (concentration not given with the values); AID 1979;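 active = most replicates above 75%; inconclusive = exactly half above 75%; inactive = most below 75%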;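 note: all wells also contain fluconazole at 8 µg/ml as a sub-toxic cotreatment; 0% = median of DMSO wells and 100% = median of geldanamycin control wells; wells of about 8 µL received 7.5 nL stock; the first replicate is given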
ALR inh: blocks human ALR sulfhydryl oxidase activity | P55789 | purified ALR, DTT oxidation, H2O2 HRP-luminol luminescence | inhibition, % (test concentration not listed) | 290,000 tested, 3.8% active;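 active = mean and each replicate at 75% or more; inconclusive = only one of the two met; inactive = neither met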;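 note: stock transfer was 7.5 nL into about 7.5 µL; 0% = neutral wells and 100% = wells with inactivated enzyme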
Target sequence (P55789 whole entry, looked up): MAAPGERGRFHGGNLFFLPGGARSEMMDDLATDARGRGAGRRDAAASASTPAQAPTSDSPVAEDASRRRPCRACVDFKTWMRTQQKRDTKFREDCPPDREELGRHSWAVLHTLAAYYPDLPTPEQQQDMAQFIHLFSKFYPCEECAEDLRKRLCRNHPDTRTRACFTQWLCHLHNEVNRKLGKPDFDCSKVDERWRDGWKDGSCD
RanGTP-Imp inh: inhibitors of RanGTP-importin-beta interaction, primary screen, biochemical, FRET, CFP-Ran, YFP-importin-beta, homogeneous; inhibition, % (test concentration not listed); cell-free CFP-Ran/YFP-importin-beta FRET ratio; 300,000 tested, 1.1% active; AID 2216;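 active = most replicates above 15%; inconclusive = exactly half above 15%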;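 note: 0% = DMSO wells and 100% = Ran loaded with GDP instead of GTP; wells of about 40 µL received 100 nL stock; the first replicate is given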
Vif TR-FRET: inhibitors of Vif binding to APOBEC3G peptide, primary screen, biochemical, TR-FRET, GST-Vif 1-94, biotin-A3G peptide, dose response retest (AID 1117319); one-dose inhibition, %; IC50 in µM for titrated hits; 260,000 tested, 0.57% active; TR-FRET GST-Vif / biotin-A3G peptide binding; higher % means a stronger effect; test concentration not given here; strong numbers were not always called active;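 active = above the screen mean plus three standard deviations and confirmed in dose response; inconclusive = results disagree or hit not tested in dose response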;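 note: Vif residues 1-94 fused to GST binding biotinylated APOBEC3G peptide 110-148; 0% = full assay without inhibitor and 100% = GST in place of GST-Vif; retest series ran down from 100 µM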
The depositor's hits bear a star; ? = inconclusive; nt = no result given.

SMILES	Beta2AR agonist	HNF4A DNA FP	LANA-H2B inh	Calb FLC	ALR inh	RanGTP-Imp inh	Vif TR-FRET
CCn1c(SCC(=O)N2CCC(C)CC2)nc2c(c1=O)SCC2	-2	-0.3	-9.5	-4	-3	?	nt
O=C(Nc1ccccc1)C1=C[C@H](c2coc3ccccc3c2=O)C[C@H](OCc2ccc(CO)cc2)O1	-3	-4.9	2.4	13	nt	-2.3	nt
C=CCn1c(SCC(=O)NNC(=O)Nc2ccc(C)cc2)nnc1-c1ccccc1	-2	3.3	0.6	10	20	-0.8	19%
CCOc1ccc(NC(=O)CN(C)C(=O)CCCOc2ccc(Br)cc2)cc1OCC	-1	2.8	2.4	-7	-2	1.4	0%
Cc1ccc(-c2cc(C(=O)N3CCN(c4ccc(F)cc4)CC3)c3ccccc3n2)o1	-1	-5.0	-2.3	24	-9	-2.2	13%
CCCCCCNC(=O)C(C#N)c1nc2ccccc2nc1N1CCOCC1 (centres undefined)	-3	8.3	-0.7	17	-13	6.3	6%
COc1c(C)cc(C(=O)C2CCCN(C(=O)Cn3ccc(C)n3)C2)cc1C (centres undefined)	10	0.6	3.6	3	-5	0.2	nt
CC1CCC2(CC1)OCC1(CCC3(COC4(CCC(C)CC4)OC3)C1=O)CO2 (centres undefined)	1	1.4	0.6	-10	-11	-1.6	-4%
COc1ccccc1-n1nnnc1SCC(=O)NC1CCCCC1	0	3.4	-0.4	-1	-14	1.1	nt
Cc1ccc(-c2cc(C(=O)Nc3nn[nH]n3)c3ccccc3n2)c(C)c1	-8	1.2	-0.7	20	24	0.0	0%
O=C(Nc1ccc(O)cc1)/C(=C\c1ccncc1)NC(=O)c1ccccc1	1	-0.7	-210	9	99*	3.0	19%
CCOc1ccc(-n2c(SCC(=O)O)nc3sc4c(c3c2=O)CCCC4)cc1	-1	-0.5	0.0	9	13	0.4	-6%
CCOC(=O)C(C)(C)N(Cc1cccc(C)c1)S(=O)(=O)c1cccc([N+](=O)[O-])c1	-9	1.9	1.1	-13	-21	1.6	nt
CC1CCN(c2ccc(C(F)(F)F)cc2N)CC1	-5	-0.8	0.0	-17	98*	-2.1	1%
Cn1nc(C(=O)NCc2ccc(F)cc2)c2c1-c1ccccc1S(=O)(=O)C2	7	-3.9	3.3	-32	-14	-2.9	0%
O=C(O)c1cccc(N2CCCC2)c1	-3	-4.6	7.9	0	21	-1.4	?
O=C(Nc1cccc(F)c1)N1CCC(c2ccccc2)CC1	-1	-0.7	2.1	-19	-6	4.4	-4%
CCOC(=O)c1[nH]cnc1C(=O)Nc1ccc(C)cc1	13	1.5	2.5	-13	31	-2.7	8%
C=C(C)COc1ccc2oc(C)c(C(=O)OCCOC)c2c1	1	2.1	0.2	11	21	3.1	2%
CC1(c2nnc(-c3cccc(Cl)c3)o2)CC(c2cccnc2)=NO1 (centres undefined)	-5	-0.8	9.5	2	8	8.8	nt
Cn1nccc1NC(=O)Nc1ccc(Cl)cc1	3	-0.2	-4.0	1	-6	0.0	76%
O=C(Nc1nc2ccc(Cl)cc2s1)C1CCCO1 (centres undefined)	-4	-0.2	-0.6	7	-2	1.8	74%
CCCNC(=O)c1onc(CSc2ccc(F)cc2)c1C(=O)NCCOC	-2	-1.9	-2.7	3	2	3.7	nt
COc1ccc(NS(=O)(=O)c2ccc(S(=O)(=O)N3CCCC3)cc2)cc1Cl	10	-2.9	-3.9	10	-10	-4.3	4%
Cc1ccc(C(CC(=O)O)C2CCOC(C)(C)C2)cc1 (centres undefined)	2	2.4	1.4	6	-1	0.2	27%
COc1ccc(CNS(=O)(=O)c2ccc3c(c2)NC(=O)C(C)S3)cc1 (centres undefined)	0	-1.0	5.5	18	-14	?	25%
COc1cc(OC)cc(C(=O)Oc2ccc(/C=N/Nc3nc4ccccc4s3)cc2OC)c1	5	2.3	1.5	6	-6	2.5	0%
CC1=CC(C)(C)Nc2ccc(Cc3ccc4c(c3)C(C)=CC(C)(C)N4)cc21	12	-3.0	0.3	13	-7	11	nt
CCCCCSc1nc2c(c(=O)[nH]c(=O)n2C)n1CCc1ccccc1	0	1.9	-6.0	0	-14	3.1	nt
CC1(C)CC(=O)C(C(C2=C(O)CC(C)(C)CC2=O)c2cccnc2)C(=O)C1 (centres undefined)	8	0.1	5.6	-5	12	-1.7	15%

At a glance, 3 of the compounds above:
SMILES	Beta2AR agonist	HNF4A DNA FP	LANA-H2B inh	Calb FLC	ALR inh	RanGTP-Imp inh	Vif TR-FRET
CC1=CC(C)(C)Nc2ccc(Cc3ccc4c(c3)C(C)=CC(C)(C)N4)cc21	12	-3.0	0.3	13	-7	11	nt
CCCCCSc1nc2c(c(=O)[nH]c(=O)n2C)n1CCc1ccccc1	0	1.9	-6.0	0	-14	3.1	nt
CC1(C)CC(=O)C(C(C2=C(O)CC(C)(C)CC2=O)c2cccnc2)C(=O)C1 (centres undefined)	8	0.1	5.6	-5	12	-1.7	15%

More entries follow:
SMILES	Beta2AR agonist	HNF4A DNA FP	LANA-H2B inh	Calb FLC	ALR inh	RanGTP-Imp inh	Vif TR-FRET
CC(=O)c1c(C)n(-c2ccc(C)cc2)c2ccc(O)cc12	15	-1.7	3.7	-2	-22	-2.9	6%
COc1ccccc1Nc1nc(-c2cccc([N+](=O)[O-])c2)cs1	-5	0.4	0.1	46	-3	-2.5	?
COc1cccc(NC(=O)CN2C(=O)NC3(CCc4ccccc43)C2=O)c1 (centres undefined)	0	-1.2	1.0	nt	-7	nt	-2%
CCCCC(=O)Nc1ccc(C(=O)Nc2ccc(S(=O)(=O)N3CCCC3)cc2)cc1	7	-0.6	6.1	-7	-4	1.4	-15%
CN1OC[C@@H]2CN(Cc3cc(Cl)cc(Cl)c3)[C@H](c3cccc(-c4ccccc4)c3)C[C@@H]21	2	2.4	nt	nt	nt	nt	-5%
COc1ccccc1N1C(=O)CC(c2ccccc2)CC1=O	-4	0.9	-1.4	nt	4	nt	nt
COc1ccc(F)cc1S(=O)(=O)n1cnc2ccccc21	-1	1.6	-3.5	5	8	0.6	nt
Cn1c(=O)c2c(nc(NCC(O)CO)n2CCc2ccccc2)n(C)c1=O (centres undefined)	-20	1.2	-0.6	17	-2	2.0	?
CC1(C)Cc2c(C#N)c(NCCCO)nc(-c3ccccc3)c2CO1	-3	28*	3.7	-5	4	-3.2	-2%
CC[C@]12c3[nH]c4ccc(Cl)cc4c3CCN1C(=O)[C@@H](CC(=O)NCc1cccc(C(F)(F)F)c1)C[C@@H]2C(=O)N1CCN(C(=O)C2CC2)CC1	0	-2.7	nt	nt	nt	nt	0%
Cc1cc(C)n(CCCNC(=O)c2ccc(C)o2)n1	-2	3.8	-12	nt	2	nt	-11%
CCN(CC)C(=O)[C@H]1C[C@H](CC(=O)NCCCOC)C(=O)N2CCc3c([nH]c4cc(-c5ccco5)ccc34)[C@]12C	7	2.8	nt	nt	nt	nt	8%
CCOC(=O)C1CCCN(c2c(NCC3CCCN3CC)c(=O)c2=O)C1 (centres undefined)	1	4.8	-2.4	-4	1	-1.0	2%
CC(C)C(=O)OCC(=O)Nc1ccc2c(c1)CCC2	4	0.1	4.2	3	1	3.9	13%
Cc1nn(-c2ccc(Cl)cc2)c(NC(=O)C(C)C)c(-c2ccccc2)c1=O	2	1.2	2.1	-9	-4	-4.4	nt
CCn1c(CC(=O)Nc2ccc(C)cc2)nnc1SCC(=O)NCc1ccccc1	-11	-1.6	2.0	31	-2	-0.4	-3%
COc1ccc(/C(C)=N/NC(=O)CNC(=O)C2COc3ccccc3O2)c(OC)c1 (centres undefined)	5	-2.4	-11	-5	-6	3.4	nt
Cc1cccc(Nc2nnc(SCC(=O)Nc3ccc(C(=O)O)cc3)s2)c1	0	-2.5	2.4	-1	94*	0.9	-1%
COc1ccc(N2CCN(C(=O)c3ccc(CSc4ccccc4)cc3)CC2)cc1	3	-2.0	1.5	-3	0	-1.3	nt
Cc1ccc(NC(=O)CCCSc2nc3ccccc3[nH]2)cc1	-24	0.8	0.6	18	1	-1.1	nt
O=C1C=C(NCCN2CCOCC2)C(=O)c2cnccc21	nt	nt	-3.9	27	-18	-1.0	16%
O=C(COC(=O)C1C2CC3OC(=O)C1C3C2)Nc1ccccc1 (centres undefined)	4	1.1	2.6	5	-8	2.1	1%
O=C(c1cccc(Cl)c1)N1CCN(c2ccccn2)CC1	-1	2.9	0.9	2	19	1.3	-2%
O=C(NNC(=O)c1ccc2c(=O)n3c(nc2c1)CCC3)c1cccc(Cl)c1	2	0.3	-11	12	15	5.8	0%
Cc1oc(-c2ccc(Cl)cc2)nc1CS(=O)CC(=O)NCCCN1CC(C)CC(C)C1 (centres undefined)	27	5.1	1.3	-7	13	-0.6	nt
C#CCOCCOCCOCCNc1nc(N2CCN(C(=O)C([C@@H](C)CC)n3cc(C(N)COC(=O)C(F)(F)F)nn3)CC2)nc(N2CCN(C(=O)[C@H](CCC(=O)O)n3cc(C(N)CC(C)C)nn3)CC2)n1 (some centres undefined)	nt	nt	-0.4	7	-12	-2.4	nt
CCOC(=O)c1cnc2ccc(C)cc2c1OCc1cc(F)cc(F)c1	1	2.5	3.8	3	-18	1.3	0%
O=C(c1ccc(F)cc1)c1ccc(N2CCCC2)cc1	-12	4.7	3.1	nt	1	0.8	9%
CC(C)CCn1c(Oc2ccccc2Cl)nc2c1c(=O)n(C)c(=O)n2C	-8	-1.8	0.6	-10	8	-5.6	-3%
CCc1cccc(NC(=O)Cn2c(=O)oc3cc(S(=O)(=O)N4CCOCC4)ccc32)c1	2	6.7	-1.2	-9	-2	5.9	2%
CCOC(=O)N1CCN(S(=O)(=O)N2CCCC(C(=O)NCc3ccccc3OC)C2)CC1 (centres undefined)	-5	-2.0	3.9	-11	-8	-3.2	2%
C=C1CCC2C(C)(C)[C@@H](O)CC[C@@]2(C)[C@@H]1COc1ccc2ccc(=O)oc2c1 (some centres undefined)	-8	-0.6	7.6	7	-17	0.9	2%
O=C(CNC(=O)c1ccccc1F)OCCOc1cccc(Cl)c1	-5	0.8	-5.9	-8	-2	-1.6	4%
Cc1cccc(C(=O)Nc2cccc(C(=O)N/N=C/c3ccccn3)c2)c1	-1	-2.2	-7.4	-5	-2	-2.3	2%
Cn1nccc1C(=O)Nc1cccc(S(=O)(=O)N2CCOCC2)c1	0	0.8	-6.6	-2	-13	1.5	nt
NC(=S)NC1CC2C=CC1C2 (centres undefined)	-6	2.8	0.1	-10	3	?	4%
CCOC(=O)C(CC)Sc1nnc2c3cc(C)ccc3n(C)c2n1 (centres undefined)	-6	-1.3	-1.1	19	nt	4.3	-2%
CCN(CC)CCCNC(=O)C1CCN(C(=O)c2oc3cc4sc(N(C)C)nc4cc3c2C)CC1	2	-1.1	0.3	-1	-22	2.4	nt
Cc1ccc(N2CN(S(=O)(=O)c3cccc([N+](=O)[O-])c3)c3nc4ccccc4nc32)cc1	-1	-2.1	-1.3	12	nt	0.6	5%
CCC(C(=O)N1CCc2ccccc2C1)n1nc(C)n2c(cc3occc32)c1=O (centres undefined)	0	-0.8	7.0	20	3	3.9	12%
CCC(C)N(C(=O)CSc1nc(C)c(C)c(C)c1C#N)C1CCS(=O)(=O)C1 (centres undefined)	-6	-1.6	-2.6	nt	17	nt	nt
CCCN1CCN(S(=O)(=O)c2ccc(-n3cnnn3)cc2)CC1	1	2.6	nt	2	-22	3.9	nt
COc1ccccc1CC(=O)Nc1ccc(Cl)cc1C(=O)O	-4	1.7	-0.2	2	-5	-4.6	1%
COc1ccc(NC(=O)COC(=O)CCSc2ccccc2)cc1OC	-4	-0.6	-2.7	nt	-10	nt	nt
CCOC(=O)CN1NC2(CCCCCCC2)NC1=S	9	2.4	-7.1	-4	53	4.3	23%
O=C(Nc1ccc(OC(=O)c2ccccc2)c(-c2nc3ccccc3s2)c1)c1ccccc1	-2	9.8	2.1	-18	-24	4.4	21%

High-throughput results deposited in PubChem by several laboratories.
